# Screens as filed in PubChem BioAssay.
# Giardia kill: Small Molecules that selectively kill Giardia lamblia: qHTS. activity change, % at 7.66 µM, hits read low. hit rate 0.15% among 340,000. Giardia lamblia trophozoite viability. AID 540267, 2011; in the data active = activity change below about -80%; inconclusive = between about -30% and that limit;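 also: parasites exposed to compound for two days anaerobically before the ATP read; % is scaled to controls: 0 for no effect and ±100 for the full control effect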
#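 Giardia lamblia trophozoites (100 cells/well) were incubated with compounds for 48 h at 37 deg C under anaerobic conditions. Viability was read as ATP content by one-step luminescence after 15-30 min at room temperature.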
# CXXC DNA block: qHTS Fluorescence Polarization Assay for Inhibitors of MLL CXXC domain - DNA interaction; hit rate 0.037% among 290,000; Potency, µM (top dose mostly 115 µM), for inactives: top-dose activity change, negative = inhibition, usual class: inhibitors; MLL-CXXC / FITC-HOXA9 DNA fluorescence polarization; active = well fitted inhibition curve with a large enough effect in the polarisation, with a control signal flat, not every such curve was filed as active; inconclusive = small, poorly fitted or top-dose-only effect, or effect the other way, or a change in a side signal; inactive = no such curve, though single readings can be large or run the other way; the % refers to the polarisation; also: potency is read from the fitted curve at half-maximal effect
#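 Purified MLL-CXXC (added from a 7 uM solution) was preincubated 5 min at ambient with pinned compounds in 50 mM Tris-HCl pH 7.5, 50 mM NaCl, 1 mM DTT, 0.05% BSA. Fluorescein-labeled HOX-A9 DNA (50 nM solution) followed, 30 min, then polarization read.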
# USP2a block: qHTS Assay for Inhibitors of Ubiquitin-specific Protease USP2a Using CHOP2 as the Reporter | Ubiquitin carboxyl-terminal hydrolase 2 (Homo sapiens), O75604 | USP2 core, Ub-CHOP2 coupled fluorogenic reporter, 485/531 | Potency, µM (doses to about 38.3 µM), without a hit: top-dose activity change, negative = inhibition, actives largely listed as inhibitors | hit rate 0.01% among 330,000;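 also: potency is read from the fitted curve at half-maximal effect; plate controls were DMSO wells for no effect and full inhibition by NEM control for full effect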
#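 USP2 core (10nM final) preincubated 30min RT with compound in 20mM Tris-HCl pH 8.0, 2mM CaCl2, 2mM beta-mercaptoethanol, 0.05% CHAPS; 25nM Ub-CHOP2 plus 25nM reporter substrate added, fluorescence (Ex485/Em531) read after 60min.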
# Menin MLL FP TR: qHTS Assay for Inhibitors Targeting the Menin-MLL Interaction in MLL Related Leukemias: Competition With Texas Red Labeled MLL-derived Mutant Peptide | O00255 | Menin + Texas Red MLL mutant peptide, fluorescence polarization | Potency, µM (series often up to 61.6 µM), for inactives: top-dose FP activity change, negative = inhibition, most hits filed as inhibitors | hit rate 0.23% among 270,000 | AID 1768, 2009; active = well fitted inhibition curve with a large enough effect in the polarisation, with a control signal flat, not every such curve was filed as active; inconclusive = small, poorly fitted or top-dose-only effect, or effect the other way, or a change in a side signal; inactive = no such curve, though single readings can be large or run the other way; the % refers to the polarisation; also: potency is read from the fitted curve at half-maximal effect; % of control where 0% means no effect; many of its hits are not listed in these tables
# GALK inhibitor: qHTS Assay for Inhibitors of Human Galactokinase (GALK). AID 1868, 2009. hit rate 0.007% among 270,000. P51570. Potency, µM (top dose mostly 57.5 µM), for inactives: at the highest dose activity change, negative = inhibition, usual class: inhibitors. Purified GALK, Kinase-Glo residual ATP luminescence; also: potency is read from the fitted curve at half-maximal effect; % is scaled to controls: 0 for no effect and ±100 for the full control effect
#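 5 nM enzyme, 35 uM ATP, 100 uM galactose, 20 mM HEPES pH8.0, 5 mM MgCl2; 1 h RT; residual ATP by Kinase-Glo Plus luminescence, qHTS format.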
# KCNH2 WT inh: qHTS for Inhibitors of KCHN2 3.1: Wildtype qHTS; Voltage-gated inwardly rectifying potassium channel KCNH2 (Homo sapiens), Q12809; U2OS, BacMam KCNH2, thallium flux FluxOr; stronger effect = lower value; activity change, % at 1.84 µM; hit rate 0.37% among 340,000; AID 720551, 2013;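 active = maximum activity change below -70%; inconclusive = maximum activity change between -70% and -50%; inactive = maximum activity change above -50%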; also: % is scaled to controls: 0 for no effect and ±100 for the full control effect
# Target sequence (Q12809 whole entry, looked up): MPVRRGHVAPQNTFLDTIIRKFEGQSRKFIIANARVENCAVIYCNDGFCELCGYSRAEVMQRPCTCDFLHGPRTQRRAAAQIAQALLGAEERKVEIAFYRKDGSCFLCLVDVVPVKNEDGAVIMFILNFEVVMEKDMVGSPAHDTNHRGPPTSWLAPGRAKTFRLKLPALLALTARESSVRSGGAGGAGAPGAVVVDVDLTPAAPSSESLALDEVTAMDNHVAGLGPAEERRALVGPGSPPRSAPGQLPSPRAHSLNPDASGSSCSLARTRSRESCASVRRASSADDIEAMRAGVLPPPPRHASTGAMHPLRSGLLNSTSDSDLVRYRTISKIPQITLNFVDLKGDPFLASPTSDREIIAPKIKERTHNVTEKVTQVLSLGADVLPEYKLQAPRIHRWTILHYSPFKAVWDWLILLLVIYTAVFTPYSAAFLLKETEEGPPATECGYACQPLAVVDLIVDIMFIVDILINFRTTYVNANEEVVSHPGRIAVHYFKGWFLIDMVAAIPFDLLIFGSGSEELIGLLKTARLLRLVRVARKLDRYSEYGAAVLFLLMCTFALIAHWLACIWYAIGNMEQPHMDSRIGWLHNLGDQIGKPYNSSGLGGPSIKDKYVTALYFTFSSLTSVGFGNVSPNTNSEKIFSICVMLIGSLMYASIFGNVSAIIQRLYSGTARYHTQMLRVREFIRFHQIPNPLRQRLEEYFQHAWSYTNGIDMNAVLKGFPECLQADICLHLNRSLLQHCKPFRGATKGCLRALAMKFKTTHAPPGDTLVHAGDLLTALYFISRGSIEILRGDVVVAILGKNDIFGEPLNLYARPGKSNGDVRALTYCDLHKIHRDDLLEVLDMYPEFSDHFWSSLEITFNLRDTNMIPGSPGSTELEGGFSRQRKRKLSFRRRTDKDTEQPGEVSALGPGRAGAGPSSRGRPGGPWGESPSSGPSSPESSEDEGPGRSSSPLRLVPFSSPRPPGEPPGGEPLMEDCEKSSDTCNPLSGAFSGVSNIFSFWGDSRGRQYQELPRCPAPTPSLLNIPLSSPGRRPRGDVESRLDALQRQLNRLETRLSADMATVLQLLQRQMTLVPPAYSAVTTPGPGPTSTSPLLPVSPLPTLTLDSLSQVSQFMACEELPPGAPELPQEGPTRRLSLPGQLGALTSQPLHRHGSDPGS
#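 U2OS cells transduced with wild-type KCNH2 virus are loaded with FluxOr dye for 45 min, and thallium flux is measured in kinetic reads before and after stimulation buffer. Rate constants are normalized to DMSO controls.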
# KCNH2 3.1 inh: qHTS for Inhibitors of KCHN2 3.1: Mutant qHTS; AID 720553, 2013; U2OS KCNH2 3.1, thallium flux FluxOr; stronger effect = lower value; activity change, % (tested at about 1.8 µM); hit rate 0.95% among 340,000;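 active = maximum activity change below -70%; inconclusive = maximum activity change from -70% to -50%; inactive = maximum activity change above -50%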;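 also: thallium influx rate constant from kinetic fluorescence after stimulation buffer; % is scaled to controls: 0 for no effect and ±100 for the full control effect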
#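 Measured as rate of thallium-driven FluxOr signal in transduced U2OS cells carrying the 3.1 channel, read kinetically for 2 min upon stimulation; values are rate constants scaled to DMSO control wells.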
# Coupling enz: qHTS Assay for Inhibitors of Fructose-1,6-bisphosphate Aldolase from Giardia Lamblia: Coupling assay counterscreen; coupling enzyme system counterscreen, AmpLite Red fluorescence; activity change, negative = inhibition, % at 58.2 µM, hits read low; hit rate 0.67% among 290,000; AID 2472, 2010; in the data active = activity change below about -30%; also: % is scaled to controls: 0 for no effect and ±100 for the full control effect
#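 Fluorescence at 525 nm excitation and 598 nm emission measured inhibition of the coupled detection system without aldolase. Compounds (at 57.5 uM final) were preincubated 10 min at room temperature with coupling enzyme reagent before a 20 min substrate/AmpLite Red step.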
# TRPV1 agonist: HTS Assay for Compounds that Act as Agonists of the Vanilloid Receptor 1; Transient receptor potential cation channel subfamily V member 1 (Homo sapiens), Q8NER1; TRPV1-expressing cells, Fluo-8 calcium influx, agonist mode; activation, % at 8.33 µM; hit rate 0.19% among 320,000; AID 540275, 2011; in the data active = activation above about 80%; inconclusive = between about 30% and that limit; also: 0% is about no effect
#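 Fluo-8 calcium influx in TRPV1-expressing cells, kinetic read (ex 480/em 520 nm). Compound added and read 3 min for agonist activity, followed by capsaicin at EC20 final and 2 min further read for enhancement.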
# B2AR arrestin: qHTS assay of beta-arrestin-biased ligands of beta2-adrenergic receptor; Potency, µM (series often up to 46.1 µM), for inactives: top-dose activation, most hits filed as activators; hit rate 0.02% among 330,000; beta-arrestin recruitment to beta2AR, cell-based reporter;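 also: potency is read from the fitted curve at half-maximal effect; 0% = DMSO controls and full agonism = EC100 isoproterenol or metaproterenol; nearly all actives have a fitted effect of over 65% in size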
# * = called active by the depositor; ? = inconclusive; . = no result given; [ ] = remark or other dose. Unless noted, calls follow the shape of the dose curve; as a rule, active = well fitted curve in the direction sought with a large enough effect; inconclusive = small, poorly fitted or top-dose-only effect, or another doubt; inactive = no such curve, though single readings can be large; an effect the other way counts as inactive or inconclusive. A portion of the library (hit frequency here may not be typical).
SMILES,Giardia kill,CXXC DNA block,USP2a block,Menin MLL FP TR,GALK inhibitor,KCNH2 WT inh,KCNH2 3.1 inh,Coupling enz,TRPV1 agonist,B2AR arrestin
CC(C)S(=O)(=O)c1nsc2nc(=O)c(/C=C3\C=Nc4ccccc43)c(N)n12,-5,-18%,3%,?,-16%,-3,8,3,0,-0.9%
CC(=O)Nc1ccc(OC(=O)c2ccco2)cc1,-7,86%[activator],2%,-8%,0%,-10,-19,2,-2,0.3%
Cc1ccc(C2N(c3cccc(Cl)c3)C(=O)C3CCCN32)o1 (stereo not given),-20,0%,3%,2%,2%,-4,13,4,0,0.2%
CC(CCc1ccccc1)NCC(O)c1cccc([N+](=O)[O-])c1 (stereo not given),-1,-19%,0%,-14%,6%,24,-4,0,2,?
CCC(=O)N1c2ccccc2C(N(C(C)=O)c2ccccc2)CC1C (stereo not given),8,8%,5%,-2%,0%,-8,1,2,8,-0.4%
O=C(c1ccccc1)N1CCN(CC#Cc2ccccc2)CC1,-6,-3%,1%,-6%,0%,-13,-6,0,10,0.2%
Cc1cc(N2CCN(c3ccccc3)CC2)nc2ccccc12,-9,0%,-1%,2%,0%,9,-8,-2,4,-0.5%
Cc1ccc(C2CC(c3ccccc3)=NN2c2ccccc2)o1 (stereo not given),-13,-2%,-2%,-3%,1%,-1,-16,0,0,0.3%
CC(O)C1CCC2C3CC[C@H]4CC(O)CCC4(C)C3CC3(OCCO3)C12C (stereo not given in full),-19,-5%,2%,-14%,2%,-3,9,4,1,0.1%
CC(C)(C)NC(=O)CSc1nc(O)cc(=O)n1-c1ccccc1,5,9%,2%,2%,-4%,-9,-10,4,4,-0.3%

# An excerpt of these results, bar-delimited.
mol | Giardia kill | CXXC DNA block | USP2a block | Menin MLL FP TR | GALK inhibitor | KCNH2 WT inh | KCNH2 3.1 inh | Coupling enz | TRPV1 agonist | B2AR arrestin
Cc1ccc(C2N(c3cccc(Cl)c3)C(=O)C3CCCN32)o1 (stereo not given) | -20 | 0% | 3% | 2% | 2% | -4 | 13 | 4 | 0 | 0.2%
CC(CCc1ccccc1)NCC(O)c1cccc([N+](=O)[O-])c1 (stereo not given) | -1 | -19% | 0% | -14% | 6% | 24 | -4 | 0 | 2 | ?
CCC(=O)N1c2ccccc2C(N(C(C)=O)c2ccccc2)CC1C (stereo not given) | 8 | 8% | 5% | -2% | 0% | -8 | 1 | 2 | 8 | -0.4%
O=C(c1ccccc1)N1CCN(CC#Cc2ccccc2)CC1 | -6 | -3% | 1% | -6% | 0% | -13 | -6 | 0 | 10 | 0.2%
Cc1cc(N2CCN(c3ccccc3)CC2)nc2ccccc12 | -9 | 0% | -1% | 2% | 0% | 9 | -8 | -2 | 4 | -0.5%
Cc1ccc(C2CC(c3ccccc3)=NN2c2ccccc2)o1 (stereo not given) | -13 | -2% | -2% | -3% | 1% | -1 | -16 | 0 | 0 | 0.3%
CC(O)C1CCC2C3CC[C@H]4CC(O)CCC4(C)C3CC3(OCCO3)C12C (stereo not given in full) | -19 | -5% | 2% | -14% | 2% | -3 | 9 | 4 | 1 | 0.1%
CC(C)(C)NC(=O)CSc1nc(O)cc(=O)n1-c1ccccc1 | 5 | 9% | 2% | 2% | -4% | -9 | -10 | 4 | 4 | -0.3%

# Continuation:
SMILES,Giardia kill,CXXC DNA block,USP2a block,Menin MLL FP TR,GALK inhibitor,KCNH2 WT inh,KCNH2 3.1 inh,Coupling enz,TRPV1 agonist,B2AR arrestin
O=C1CC(N2CCN(c3ccc(F)cc3)CC2)C(=O)N1c1ccc2c(c1)OCO2 (stereo not given),-10,-5%,0%,-5%,-2%,.,-1,3,-11,0.2%
Cc1ccc(-c2cc(C(=O)NCCCn3ccnc3)no2)cc1,-20,-2%,2%,-7%,7%,.,-11,1,22,0.5%
C/C(=N\NC(=O)c1c(Cl)cnn1C)c1ccc(NC(=O)c2ccncc2)cc1,10,2%,-2%,9%,-2%,2,10,3,1,-1.1%
Nc1ncnc2c1ncn2[C@@H]1O[C@H](COP(=O)(O)O)[C@@H](O)[C@@H]1O,.,.,.,0%[24.8 µM],.,.,.,0,.,.
Cc1ccc(NC(=O)CSC2=Nc3ccccc3C3CC=NN23)c(C)c1 (stereo not given),-10,2%,0%,.,-4%,-8,8,2,13,0.0%
CC(C)(C)NS(=O)(=O)c1cc(C(=O)O)ccc1Cl,-15,1%,0%,-3%,6%,11,12,8,0,-0.3%
CCN1CC(CN(C)Cc2nc(COc3ccccc3)no2)CC1=O (stereo not given),11,-9%,3%,-7%,3%,-5,6,1,-1,0.1%
Cc1cc(C)nc(SCCC(=O)Nc2cccc3ccccc23)n1,-2,1%,2%,-7%,.,-1,4,7,2,-0.3%
O=C(O)C1CCC(CNCc2ccccc2Cl)CC1 (stereo not given),-4,7%,4%,3%,-1%,14,5,1,4,-1.0%
O=S(=O)(Nc1ccc(S(=O)(=O)N2CCOCC2)cc1)c1ccccc1,3,-6%,1%,15%,-3%,5,0,4,0,-0.3%

# The final two entries of the section above come first, to join the parts.
SMILES,Giardia kill,CXXC DNA block,USP2a block,Menin MLL FP TR,GALK inhibitor,KCNH2 WT inh,KCNH2 3.1 inh,Coupling enz,TRPV1 agonist,B2AR arrestin
O=C(O)C1CCC(CNCc2ccccc2Cl)CC1 (stereo not given),-4,7%,4%,3%,-1%,14,5,1,4,-1.0%
O=S(=O)(Nc1ccc(S(=O)(=O)N2CCOCC2)cc1)c1ccccc1,3,-6%,1%,15%,-3%,5,0,4,0,-0.3%
O=C(Nc1nc2c(Br)cccc2s1)C1CC1,-9,.,1%,21%,.,0,3,1,0,2.3%
Cc1[nH]c(=O)[nH]c(=O)c1/C=N/NC(=O)[C@H](C)N,-6,13%,7%,.,1%,6,-4,1,0,-1.0%
O=C(Cc1ccc(S(=O)(=O)N2CCOCC2)s1)Nc1ccccc1Br,22,-11%,-1%,.,-3%,7,5,1,2,5.7%
CCCOC1(NC(=O)c2ccccc2)C(C)=CC(=O)C=C1C,0,1%,1%,16%,1%,1,-5,-3,-2,-0.5%
Cc1cc(C2(c3ccc(O)c(C)c3)OC(=O)c3ccccc32)ccc1O,27,10%,0%,?,.,3,23,10,2,2.5%
O=C(/C=C/c1ccccc1)C1=C(O)C(=O)N(CCO)C1c1ccc2c(c1)OCO2 (stereo not given),1,-1%,3%,5%,-1%,-6,0,18,-1,-0.8%
COc1ccc(C(=O)NNC(=S)NC(=O)c2ccco2)cc1,-8,-8%,2%,-11%,.,3,-4,-3,-2,-0.9%
O=C(Nc1ccccc1)NC1(C(=O)NCc2cccs2)CCCCC1,-8,11%,0%,4%,0%,-6,-8,-2,-4,-1.0%
O=C(COc1ccc(Cl)cc1Br)Nc1ccncc1,7,10%,2%,-1%,0%,-4,-35,0,29,-0.9%
COc1ccc(C(=O)NCc2cn3ccccc3n2)cc1,7,15%,1%,1%,-2%,12,3,1,-1,-0.7%
Cc1csc(NC(=O)CSc2ncn(-c3ccccc3)n2)n1,-7,-15%,3%,0%,2%,-17,5,3,2,0.2%
Cc1ccc(-n2ncc3c(=O)n(CC(=O)N(C)C)cnc32)cc1,-26,-7%,-1%,-1%,4%,-8,7,1,-1,0.2%
CCCCn1c(N)c(NCc2ccccc2)c(=O)[nH]c1=O,8,1%,2%,-9%,5%,-3,18,0,-6,0.9%
CN(Cc1nc(Cc2ccccc2F)no1)[C@@H]1CS(=O)(=O)C[C@H]1O,17,-5%,2%,10%,1%,-3,5,5,-6,-0.3%
Cc1cc(C)n(C(=O)c2cc(F)c(F)cc2C)n1,-14,0%,1%,-2%,0%,5,45,-1,-2,-0.7%
COc1cc(CCc2ccc3c(c2)OCO3)oc(=O)c1,6,-3%,0%,.,1%,16,7,4,6,-0.1%
CCOC(=O)c1sc(NC(=O)CC)c(C#N)c1C,-12,9%,4%,11%,7%,-3,-7,0,2,0.4%
C=CCOc1ccc2c(c1)c(=O)cc(C(=O)O)n2CC,-7,2%,7%,.,.,2,-2,0,-2,-0.6%
CN(C(=S)NC(=O)c1ccc(Br)o1)c1ccccc1,6,-3%,2%,3%,1%,-1,10,1,0,-0.6%
COC(=O)C(C(=O)OC)C(C)C(C(=O)OC)C(=O)OC,-1,-1%,0%,1%,3%,-3,-7,1,-2,0.0%
O=C(NCc1ccco1)c1ccc(S(=O)(=O)c2cccc(S(=O)(=O)N3CCOCC3)c2)cc1,7,11%,0%,-7%,-2%,-4,3,0,-1,4.4%
